Calb FLC: C. albicans growth inhibition with fluconazole, primary screen, CaCi-2 strain, Alamar Blue fluorescence; C. albicans CaCi-2 (fluconazole-resistant clinical isolate) + fluconazole, 48 h; growth inhibition, % (no concentration beside the values); hit rate 0.57% among 300,000; AID 1979, 2009;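 active = most replicates above 75%; inconclusive = exactly half above 75%; inactive = most below 75%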;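 note: all wells also contain fluconazole at 8 µg/ml as a sub-toxic cotreatment; 0% = median of DMSO wells and 100% = median of geldanamycin control wells; wells of about 8 µL received 7.5 nL stock; the first replicate is given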
RanGTP-Imp inh: inhibitors of RanGTP-importin-beta interaction, primary screen, biochemical, FRET, CFP-Ran, YFP-importin-beta, homogeneous; Ran GTPase (GTP-bound) - importin-beta complex; cell-free CFP-Ran/YFP-importin-beta FRET ratio; inhibition, % (test concentration not listed); hit rate 1.1% among 300,000; AID 2216, 2009;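 active = most replicates above 15%; inconclusive = exactly half above 15%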;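 note: 0% = DMSO wells and 100% = Ran loaded with GDP instead of GTP; wells of about 40 µL received 100 nL stock; the first replicate is given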
T cruzi inh: inhibitors of intracellular T. cruzi growth, primary screen, luminescence, NIH3T3 host cells; T. cruzi beta-gal in NIH3T3, 90 h; inhibition, % (concentration not given with the values); AID 1885, 2009; hit rate 1.4% among 300,000;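 active = mean inhibition across valid replicates above about 55%, limit read from the data; inconclusive = mean below that limit but half or more replicates reach it; inactive = mean below it, under half of replicates reach it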;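 note: signal also drops with host cell toxicity which is not excluded here; 0% = plate median of DMSO wells and 100% = zero luminescence signal; higher percent means less beta-gal luminescence so fewer parasites; stock transfer was 50 nL into about 50 µL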
Vif TR-FRET: inhibitors of Vif binding to APOBEC3G peptide, primary screen, biochemical, TR-FRET, GST-Vif 1-94, biotin-A3G peptide, dose response retest (AID 1117319) | inhibition, %; hits with a dose series show IC50 in µM | hit rate 0.57% among 260,000 | Virion infectivity factor (Human immunodeficiency virus type 1 group M subtype B (isolate … | TR-FRET GST-Vif / biotin-A3G peptide binding; higher % means a stronger effect; test concentration not given here; strong numbers were not always called active;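 active = above the screen mean plus three standard deviations and confirmed in dose response; inconclusive = results disagree or hit not tested in dose response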;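 note: Vif residues 1-94 fused to GST binding biotinylated APOBEC3G peptide 110-148; 0% = full assay without inhibitor and 100% = GST in place of GST-Vif; retest series ran down from 100 µM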
Beta cell apopt: inhibitors of cytokine-induced beta cell apoptosis, primary screen, luminescence | hit rate 0.8% among 300,000 | INS-1E cytokine-induced death, ATP luminescence, 48 h; percent of positive-control rescue, neutral wells zero | protection from apoptosis, % (test concentration not listed);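 active = all replicates at 75% or more, or half of them and the mean; inconclusive = half reach 75% but not the mean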;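 note: 0% = cytokine-treated negative control wells and 100% = positive control rescue; higher means more ATP so stronger rescue from cytokine killing; wells of about 40 µL received 100 nL stock; the first replicate is given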
A1 inh: caspase 3/7 activation in MEF A1-2A-BIM cells, primary screen, A1 inhibitor project, cell-based, luminescence, HTS | Caspase-Glo 3/7 luminescence, 3 h; percent of clofoctol response, vehicle zero | caspase activation, % (concentration not given with the values) | hit rate 0.066% among 330,000 | AID 2462, 2010;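 active = over half of replicate activation scores above 10%, or exactly half above 10 with the replicate mean above 10; inconclusive = replicate mean below 10 yet half the replicates above 10; inactive = over half of replicates below 10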;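 note: wells of about 30 µL received 50 nL stock; many hits fall short of the cut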
rRNA inh HTS: reduced GFP signal of wild-type E. coli, primary screen, bacterial rRNA inhibitor project, GFP/RFP fluorescence, OD600, single point; E. coli WT GFP vs humanized-ribosome RFP mutants, 24 h; hits give low values; DMSO median 0, no signal -100; GFP signal change (wild-type ribosome), % (no concentration beside the values); hit rate 1.6% among 350,000; AID 720706, 2013;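 active = significant combined selectivity score with lowered wild-type GFP, culture density cut under 30%, mutant RFP and density less affected; inactive = any of these conditions unmet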; note: one replicate is shown; some compounds called inactive have numbers as strong as hits
AF4-AF9 inh: inhibitors of AF4 peptide binding to AF9, primary screen, biochemical, AlphaScreen, biotin-AF4 peptide, FLAG-AF9, single point. inhibition, % at 10 µM. AID 651704, 2012. hit rate 0.47% among 350,000;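 active = every replicate reaching a set inhibition limit, whatever the replicate mean, cut at about 25% in these data; inconclusive = mean inhibition reaches that limit but some replicates miss it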;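 note: 0% = plate neutral control median and 100% = total signal loss; the record names both 10 and 1 µM as test concentration; the first replicate is given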
Target sequence (P42568 whole entry, looked up): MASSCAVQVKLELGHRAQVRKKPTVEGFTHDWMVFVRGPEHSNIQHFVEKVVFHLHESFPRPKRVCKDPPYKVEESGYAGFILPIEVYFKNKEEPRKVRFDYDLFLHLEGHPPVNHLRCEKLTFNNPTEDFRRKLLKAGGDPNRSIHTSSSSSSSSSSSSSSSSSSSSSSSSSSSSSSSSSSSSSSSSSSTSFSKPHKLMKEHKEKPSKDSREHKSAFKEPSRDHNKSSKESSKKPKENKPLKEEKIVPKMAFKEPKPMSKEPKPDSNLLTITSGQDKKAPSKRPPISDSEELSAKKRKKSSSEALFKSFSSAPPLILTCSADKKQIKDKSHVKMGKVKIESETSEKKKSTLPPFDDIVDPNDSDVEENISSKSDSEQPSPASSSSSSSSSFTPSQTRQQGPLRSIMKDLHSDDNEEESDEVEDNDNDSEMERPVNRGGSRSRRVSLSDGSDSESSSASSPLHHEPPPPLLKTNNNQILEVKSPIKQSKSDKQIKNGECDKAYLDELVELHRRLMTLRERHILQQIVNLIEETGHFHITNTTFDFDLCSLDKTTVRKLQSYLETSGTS
rRNA inh HTS OD600: second read-out of rRNA inh HTS, no call of its own (marks repeat the call); OD600 change, %; measured here: OD600 growth;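 optical density of the mix in the first replicate; 0 = DMSO median and -100 = no signal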
rRNA inh HTS RFP: also measured in rRNA inh HTS; calls as there; RFP signal change, %; measured here: RFP humanized mutant strains;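 first replicate; 0 = DMSO median and -100 = no signal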
The depositor's hits bear a star; ? = inconclusive; / = not tested or not shown; & = joins results of further samples. Not all compounds are listed. The share of hits here may be higher or lower than overall.

Order of results: Calb FLC	RanGTP-Imp inh	T cruzi inh	Vif TR-FRET	Beta cell apopt	A1 inh	rRNA inh HTS	rRNA inh HTS OD600	rRNA inh HTS RFP	AF4-AF9 inh
[1] Cc1sc2nc(N3CCOCC3)[nH]c(=O)c2c1-c1ccccc1
→ 36	-3.0	-5	-125%	-2	0.5	3	7	14	0.7
[2] Cc1cccnc1NC(=O)CCc1nnc2ccc(NCc3ccco3)nn12
→ -2	4.3	-13	31%	-3	-0.9	1	1	0.0	0.1
[3] COc1ccc(C(=O)N(CC2CCCO2)C(C(=O)NC2CCCC2)c2ccc(C)cc2)cc1OC (stereo not given)
→ 1	1.9	-1	20%	-4	0.1	/	/	/	/
[4] COc1cc(Cl)c(C)cc1NC(=O)CSC1=NCCS1
→ /	/	/	/	-9	-0.1	-1	-3	0.9	-5.7
[5] Cc1ccc(C(=O)CCC(=O)OCC(=O)N(C)c2c(N)n(Cc3ccccc3)c(=O)[nH]c2=O)cc1
→ /	-6.3	4	-5%	-1	-0.4	18	17	1.9	-0.3
[6] O=C(COC(=O)c1ccc(F)cc1)Nc1ccccc1N1CCOCC1
→ 9	-1.3	-19	16%	/	0.9	/	/	/	/
[7] CC(=O)N(c1ccccc1)c1c(F)c(F)c(F)c(F)c1F
→ 0	?	-23	0%	1	0.4	/	/	/	/
[8] Cc1ccc(-c2csc(N(CCCN(C)C)C(=O)c3ccco3)n2)cc1
→ -2	2.5	48	-5%	-7	0.1	6	-6	0.4	22
[9] COc1ccc(/C(C)=N/NC(=O)CNC(=O)COc2ccccc2)c(OC)c1
→ 8	-2.7	-6	/	-5	0.1	5	7	-2.1	-2.4
[10] CN(CC1CCOCC1)C(=O)CC1C(=O)NCCN1CC(c1ccccc1)c1ccccc1 (stereo not given)
→ -3	0.8	-5	/	-2	0.6	5	6	-1.2	1.3

Continued.
Order of results: Calb FLC	RanGTP-Imp inh	T cruzi inh	Vif TR-FRET	Beta cell apopt	A1 inh	rRNA inh HTS	rRNA inh HTS OD600	rRNA inh HTS RFP	AF4-AF9 inh
[11] COc1ccc2nc(Nc3nc(C)c(C(C)=O)s3)sc2c1
→ 5	18*	33	2%	31	-3.4	/	/	/	/
[12] CN(C(=S)Nc1ccc(SC(F)F)cc1)c1ccc(O)cc1
→ 1	-1.6	-39	/	/	1.8	-55	-78	-20	-4.6
[13] O=C(O)CCCN1C(=O)/C(=C/c2ccc(-c3nc4ccccc4s3)o2)SC1=S
→ ?	-1.8	3	27%	-6	0.9	/	/	/	/
[14] CCN1C(=NCC(C)C)N[C@@H](c2cccc(C(F)(F)F)c2)C(C(=O)OC)=C1C
→ -3	0.2	8	/	8	0.2	-25	-56	2.3	-6.7
[15] CCOC(=O)CSC1=C(C#N)C(c2ccco2)C(C(=O)Nc2cccc(C(F)(F)F)c2)=C(C)N1 (stereo not given)
→ 1	3.2	17	6%&-3%	-3	0.0	/	/	/	/
[16] CC(=O)Nc1ccc(N(C(=O)c2ccccn2)C(C(=O)NC2CCCCC2)c2ccc(F)cc2)cc1 (stereo not given)
→ -2	1.6	-8	/	-3	-0.3	8	1	-2.8	-0.5
[17] COC(=O)[C@]1(Cc2ccccc2)N[C@H](CN(C)S(=O)(=O)c2ccc(-c3ccccc3)cc2)[C@@H]2C(=O)N(C)C(=O)[C@@H]21
→ /	/	/	-5%	5	1.2	4	8	4.2	-3.8
[18] COc1ccc(CC(=O)OCC(=O)NC(=O)NC23CC4CC(CC(C4)C2)C3)cc1
→ -1	?	2	1%	-7	0.1	/	/	/	/
[19] CCN(CC)c1ccc(Nc2nc(Cl)ncc2Br)cc1
→ -9	3.4	15	-2%	15	0.7	5	-20	-1.6	27*
[20] Cc1ccc(NC(=O)C2CCCN2C(=O)c2cccs2)cc1C (stereo not given)
→ /	/	/	-2%	5	-0.1	2	5	-0.5	-0.7

Further compounds
Order of results: Calb FLC	RanGTP-Imp inh	T cruzi inh	Vif TR-FRET	Beta cell apopt	A1 inh	rRNA inh HTS	rRNA inh HTS OD600	rRNA inh HTS RFP	AF4-AF9 inh
[21] COc1ccc(Cl)cc1-c1nc(SCC(=O)NCCN2C(=O)CSC2=O)n[nH]1
→ 2	-2.6	0	1%	-16	-0.1	/	/	/	/
[22] CCc1ccc(NC(=O)CNC(=O)[C@@H]2Cc3ccccc3CN2)cc1
→ -6	-1.3	-5	4%	-2	0.7	13	17	5.1	0.0
[23] COc1cc(NC(=O)c2cccc(C)c2)c(Cl)cc1[N+](=O)[O-]
→ 7	-1.1	9	0%	9	0.0	/	/	/	/
[24] COc1ccc(C(=O)Nc2cc(C)c(NC(=O)c3ccccn3)cn2)cc1
→ 5	-0.6	12	-4%	-5	-2.5	-1	3	-2.3	-2.5
[25] O=C(c1cc2c(=O)n3ccccc3nc2s1)N1CCN(Cc2ccc3c(c2)OCO3)CC1
→ 5	-2.1	13	-4%	-5	0.0	10	12	1.2	-2.1
[26] CCCNCc1cc(Br)ccc1OCC(=O)NCCc1ccccc1
→ 11	1.4	5	4%	/	-0.4	/	/	/	/
[27] CC(Nc1ccc(Cl)cc1)c1cc(Cl)ccc1O (stereo not given)
→ -2	3.6	-8	0%	-6	0.6	/	/	/	/
[28] CCc1ccc(NC(=O)CSc2ccc(-c3ccco3)nn2)cc1
→ 9	4.4	16	9%	-4	-0.5	/	/	/	-0.9
[29] CCC1CCCCN1C(=O)COc1cccc2c1CCN(C)C2=O (stereo not given)
→ 2	18*	1	0%	-3	-1.3	3	5	-2.5	0.9
[30] Cc1c(OCC(=O)N(C)C)ccc2c(-c3ccccc3)cc(=O)oc12
→ 11	-1.4	18	4%	0	-1.2	-11	-2	1.5	-1.7

Part of the list above, showing only T cruzi inh and AF4-AF9 inh:
no.	canonical_smiles	T cruzi inh	AF4-AF9 inh
6	O=C(COC(=O)c1ccc(F)cc1)Nc1ccccc1N1CCOCC1	-19	/
12	CN(C(=S)Nc1ccc(SC(F)F)cc1)c1ccc(O)cc1	-39	-4.6
10	CN(CC1CCOCC1)C(=O)CC1C(=O)NCCN1CC(c1ccccc1)c1ccccc1 (stereo not given)	-5	1.3
16	CC(=O)Nc1ccc(N(C(=O)c2ccccn2)C(C(=O)NC2CCCCC2)c2ccc(F)cc2)cc1 (stereo not given)	-8	-0.5

Additional results
Order of results: Calb FLC	RanGTP-Imp inh	T cruzi inh	Vif TR-FRET	Beta cell apopt	A1 inh	rRNA inh HTS	rRNA inh HTS OD600	rRNA inh HTS RFP	AF4-AF9 inh
[31] CC(C)(C)c1ccc(C(=O)N2CCC(=O)N(C(CO)Cc3ccccc3)CC2)cc1 (stereo not given)
→ -4	-4.4	-22	?	2	0.8	-3	-4	-3.7	-0.1
[32] CCOC(=O)c1sc(NC(=O)CSc2nc(-c3ccco3)cc(C(F)(F)F)n2)c(C(=O)OC)c1C
→ 12	-3.4	2	-1%	-6	0.5	7	1	3.9	-2.6
[33] O=C(Nc1cnccn1)C1c2ccccc2Oc2ccccc21
→ 7	-0.1	1	3%	-3	0.1	/	/	/	/
[34] O=C(Nc1nccs1)C1CCCN(S(=O)(=O)c2cccnc2)C1 (stereo not given)
→ -8	0.6	3	-3%	-4	1.3	9	9	-0.4	-0.6
[35] CCc1ccccc1NC(=O)c1ccc2snnc2c1
→ -3	3.6	-10	/	2	0.5	6	3	2.0	-8.3
[36] Cc1ccc(S(=O)(=O)NCC(=O)OCC(=O)Nc2cccc(S(=O)(=O)NC3=NCCCCC3)c2)cc1C
→ -1	5.0	-3	?	2	0.9	9	14	3.7	2.4
[37] O=C(O)c1ccccc1-c1ccccc1C(=O)Nc1ccc2c(c1)[nH]c(=O)c1ccccc12
→ 9	2.1	2	7%	0	-1.0	-5	1	3.7	-5.0
[38] COc1cc(C(=O)NCC(C)C)c([N+](=O)[O-])cc1OC
→ 24	-1.2	-9	8%	2	-1.3	/	/	/	/
[39] COc1ccc(-c2nnc(SCC(=O)Nc3cc(S(=O)(=O)N4CCCCC4)ccc3Cl)n2N)cc1
→ -12	3.4	-15	/	/	-0.1	/	/	/	/
[40] COc1cccc(CNS(=O)(=O)c2cc(-c3cc(C)no3)ccc2C(C)C)c1
→ 24	5.0	23	/	0	1.3	-5	-12	-3.2	-1.6

The results go on:
Order of results: Calb FLC	RanGTP-Imp inh	T cruzi inh	Vif TR-FRET	Beta cell apopt	A1 inh	rRNA inh HTS	rRNA inh HTS OD600	rRNA inh HTS RFP	AF4-AF9 inh
[41] O=C(CSc1nncn1-c1cccnc1)N1CCOCC1
→ -13	1.7	-21	5%	-7	0.0	4	6	0.3	-1.6
[42] c1ccc(C2C3=C(CCCC3)Nc3ncnn32)cc1 (stereo not given)
→ -16	2.9	-22	0%	-2	0.4	/	/	/	/
[43] O=C(COC(=O)c1ccc(S(=O)(=O)NCc2ccco2)cc1)NCC1CCCCC1
→ 17	1.0	-10	22%	-9	-0.7	/	/	/	/
[44] O=C(c1cc(Br)ccc1O)N1CCN(S(=O)(=O)Cc2ccccc2)CC1
→ /	/	/	9%	2	0.3	/	/	/	0.4
[45] Clc1ccc(-c2nnc3cccc(Cl)n23)c(Cl)c1
→ 4	2.4	-6	-1%	-6	0.2	/	/	/	/
[46] Cc1noc(C)c1NC(=O)Nc1ccc2c(c1)C(=O)N([C@H](C)CO)C[C@H](C)[C@@H](CN(C)C(=O)NC1CCCCC1)O2
→ /	/	/	/	-6	-0.3	3&6	2&2	-1.3&1.2	0.1&0.7
[47] O=C1CCC(c2ccccc2)N1C(=O)c1cccnc1 (stereo not given)
→ 0	34*	-16	23%	-4	0.4	8	-1	-7.3	-4.7
[48] O=C(COc1cccc2cccnc12)N/N=C1\SCC(=O)N1CCc1ccccc1
→ -22	1.7	4	10%	3	-0.6	-8	-15	2.3	1.2
[49] COc1cc(C(=O)NCCC(=O)NCc2c(F)cc(F)cc2F)cc(OC)c1OC
→ 4	7.0	1	/	-8	1.6	7	10	-1.5	-8.2
